# Assay outcomes as filed in PubChem.
# Kir21 inh = blocks the mouse Kir2.1 inward-rectifier potassium channel | HEK293-Kir2.1, FluxOR thallium flux fluorescence; hits give low values | B-score at 10 µM | 310,000 tested, 0.85% active;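 active = fluorescence ratio B-score at or below minus 3 SD of library scores, with starting-brightness B-score within 2 SD, cut at about -4.2 in these data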;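 note: channel flux triggered by added potassium and thallium sulfate stimulus; B-score of peak minus minimum fluorescence over baseline after thallium stimulus; more negative B-score means stronger Kir2.1 block with less thallium influx; some compounds called inactive have numbers as strong as hits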
# Target sequence (P35561 whole entry, looked up): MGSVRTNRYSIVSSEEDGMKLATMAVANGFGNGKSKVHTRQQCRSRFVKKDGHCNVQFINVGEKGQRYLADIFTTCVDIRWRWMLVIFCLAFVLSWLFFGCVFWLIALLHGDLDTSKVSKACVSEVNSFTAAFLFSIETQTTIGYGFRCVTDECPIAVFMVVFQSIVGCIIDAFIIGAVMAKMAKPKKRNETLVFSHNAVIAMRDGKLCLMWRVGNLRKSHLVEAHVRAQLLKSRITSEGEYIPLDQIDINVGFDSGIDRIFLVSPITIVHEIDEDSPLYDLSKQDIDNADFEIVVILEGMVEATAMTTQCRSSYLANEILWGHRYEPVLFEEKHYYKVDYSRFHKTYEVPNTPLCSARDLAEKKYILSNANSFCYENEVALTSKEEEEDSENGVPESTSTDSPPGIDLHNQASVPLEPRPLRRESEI
# The depositor's hits bear a star; & = joins results of further samples. A portion of the library, and most or all hits are left out here.
SMILES,Kir21 inh
CC(C)c1ccc(C2C(C(=O)c3ccco3)=C(O)C(=O)N2CCN2CCOCC2)cc1 (stereo unspecified),2.7
Fc1ccc(-c2cc(C(F)(F)F)nc(N3CCCCC3)n2)cc1,0.68
CCCn1cc(NC(=O)C2CC(c3cccc(Br)c3)=NO2)cn1 (stereo unspecified),1.3
CCOC(=O)c1ccccc1NC(=O)Cn1cnc2c(oc3ccccc32)c1=O,0.67
CC(C)c1ccc(NC2CCCN(C(=O)CCc3cnn(C)c3)C2)cc1 (stereo unspecified),-1.4
O=C(N/N=C/c1cccnc1)c1cc(O)c(O)c(O)c1,-0.91
CC(=O)Nc1ccc(S(=O)(=O)Oc2ccccc2N2CCCCC2)cc1,-3.3
CC[C@@]12C(=O)N(c3ccccc3)C(=O)N1[C@H](c1cccc(C)c1)[C@@H]1C(=O)N(Cc3ccccc3)C(=O)[C@@H]12,-1.4
COC(=O)CSc1cc(C)nc(NC(C)=O)n1,0.65
COc1ccc(NCc2cc3cc(OC)ccc3[nH]c2=O)cc1,0.61
Cc1ccccc1C(=O)NCC(=O)Nc1ccc(C)c(S(=O)(=O)N2CCCCCC2)c1,-0.97
O=C(CN1CCOCC1)Nc1ccc(Oc2ccc(NC(=O)CN3CCOCC3)cc2)cc1,0.73
CCC(=O)Nc1ccc(Nc2ccccc2)cc1,-0.49
Cc1ccc(CNCC(=O)Nc2ccc(N3CCOCC3)cc2)cc1,0.54
CCc1cccc(CC)c1NC(=S)NCc1ccc2[nH]c(C)cc2c1,-0.41
COc1ccccc1N1CCN(C(=O)/C=C/c2ccccc2)CC1,1
Cc1ccc(NC(=O)CNC(=O)COc2ccccc2)nc1,-0.26
Brc1cccc(OCCSc2ncccn2)c1,-1.3
O=C(Nc1cccc(-c2nc3ncccc3o2)c1)c1sc2ccccc2c1Cl,1.3
CCCC1=Nc2cc(C(=O)NCCCN3CCN(C)CC3)ccc2Sc2ccccc21,-2.4
Cc1ccsc1CN1CCC(C(=O)NCc2ccccc2Cl)CC1,-1.2
CCCC(=O)OCCn1c(Br)nc2c1c(=O)[nH]c(=O)n2C,0.32
O=[N+]([O-])c1ccc(/C=N/Nc2ncc(Br)cn2)cc1,0.87
COc1ccc(N2CCN(c3ccc(N)cc3C#N)CC2)cc1,0.03
COc1ccccc1OCC(=O)NNC(=O)c1ccc2c(=O)n3c(nc2c1)CCC3,1.6
Cc1ccc(-c2[nH]c3ccccc3c2C(C[N+](=O)[O-])c2ccco2)cc1 (stereo unspecified),0.04
O=C(Nc1ccc2c(c1)CCCN2C(=O)c1ccco1)c1cc([N+](=O)[O-])ccc1Cl,-2.6
COC(=O)c1cn(Cc2cccnc2)c(=O)c2ccccc12,0.02
Cc1ccc(CN2CCN(Cc3cccn3-c3ccc(Cl)cn3)CC2CCO)o1 (stereo unspecified),-0.9
CN(CCCNC(=O)Cn1c(=O)c2cccn2c2ccccc21)Cc1ccccc1,-0.59
CCCCNCCOCCOc1ccc(F)cc1,2.5
COC(=O)Cn1ncc2c3ccccc3n(Cc3ccccc3)c2c1=O,1
CN(C)CCNc1nc(-c2ccccc2)c2c(c1C#N)CC(C)(C)OC2,0.63
Oc1ccc(C[C@H]2CNCCN2CCCCC2CCCCC2)cc1,-0.71
COc1ccc(C(=O)NCc2ccc3c(c2)OCO3)cc1S(=O)(=O)N(C)Cc1ccccc1,-0.07
O=C(NCC1CCCO1)C1CC(=O)N(c2ccc(F)c(Cl)c2)C1 (stereo unspecified),-1.7
O=C(O)/C=C/c1ccc(O)c(O)c1,-0.08
CCN(c1ccccc1)S(=O)(=O)c1cccc(C(=O)O)c1,1.1
Cc1cc(=O)[nH]c(Nc2ccccc2C)n1,1.3
O=C(CCS(=O)(=O)c1ccccc1)N(CCCN1CCOCC1)c1nc2ccccc2s1,-0.02
CCOc1ccc(OCCSc2nc(N)cc(=O)[nH]2)cc1,-0.07
Cn1nc(C(=O)OCC(=O)Nc2cccc(S(=O)(=O)N3CCCC3)c2)c2ccccc2c1=O,-0.73
Cc1ccc(Sc2c(C)nn(C(=O)C3CC3)c2C)cc1,-0.07
CCN(Cc1ccncc1)C(=O)c1ccco1,0.5
Cc1cccc(N2C(=O)/C(=C/c3ccccn3)SC2=S)c1,1.2

# Ordered by formula weight (smallest number first): 3 of the compounds above.
SMILES,Kir21 inh
CCOc1ccc(OCCSc2nc(N)cc(=O)[nH]2)cc1,-0.07
Cc1cccc(N2C(=O)/C(=C/c3ccccn3)SC2=S)c1,1.2
COC(=O)Cn1ncc2c3ccccc3n(Cc3ccccc3)c2c1=O,1

# The results go on:
SMILES,Kir21 inh
C=CCN(Cc1nc(-c2cc(OC)c3c(c2)OCO3)oc1C)C1CCS(=O)(=O)C1 (stereo unspecified),-0.41
Cc1ccc(-c2ccc(C(=O)O)c(C)n2)cc1,-0.48
CCCCn1c(N)c(N(CCC(C)C)C(=O)CC2CCCCC2)c(=O)[nH]c1=O,0.54
Cc1ccc(C(=O)OCC(=O)NCc2ccco2)s1,-0.16
CCCNC(=O)NC(=O)CSc1ccc(C)cc1C,0.07
O=C(CCc1ccccc1)NNC(=S)NCCc1ccccc1,-0.4
CCCCCn1c(=O)[nH]c2cc(C(=O)N3CCN(C(=O)OCC)CC3)ccc2c1=O,0.23
COc1cccc(CNC(=O)Cc2ccc(NC(=O)C3=C(C)OCCS3)cc2)c1,-0.59
COc1ccc(NC(=O)/C(=C/c2cccnc2)NC(=O)c2cccs2)cc1,0.19
NS(=O)(=O)c1ccc(CNC(=S)NCc2ccc(F)cc2)cc1,0.07
c1ccc2sc(NC3=NCN(C4CCCCCC4)CN3)nc2c1,-1.4
Cc1ccc2nc(-c3ccccc3)cc(C(=O)NNC(=O)c3csc(N4CCOCC4)n3)c2c1,1.4
Nc1c(N=Nc2ccccc2F)c(=O)[nH]n1-c1ccccc1,1.3
C=C1CCN([C@H](C(=O)O)C(C)C)S(=O)(=O)c2ccccc21,-0.26
COc1cccc(CNC(=O)CCC2CCCN(C/C=C/c3ccccc3OC)C2)c1 (stereo unspecified),0.04

# Reformatted with tabs: two of the compounds above.
molecule	Kir21 inh
COc1cccc(CNC(=O)Cc2ccc(NC(=O)C3=C(C)OCCS3)cc2)c1	-0.59
COc1ccc(NC(=O)/C(=C/c2cccnc2)NC(=O)c2cccs2)cc1	0.19

# Additional records.
SMILES,Kir21 inh
CCOc1ccc2nc(SCCNS(=O)(=O)c3ccccc3)sc2c1,0.94
COc1ccc(S(=O)(=O)N(C)C)cc1NC(=O)Cc1c[nH]c2ccccc12,-0.84
CCC(NC(=O)c1ccc(C#CC2(O)CCCCC2)cc1)C(=O)O (stereo unspecified),1.6
CC1(C)CC(NC(=O)COc2ccc3ccc(=O)oc3c2)CC(C)(C)N1,0.96
CCOc1ccc(NC(=O)CCCCCN2C(=O)[C@@H]3Cc4ccccc4CN3C2=O)cc1,0.92
Cc1c(NC(=O)C2CCN(S(=O)(=O)c3ccc(Cl)cc3)CC2)c(=O)n(-c2ccccc2)n1C,1.2
CCOCCn1c(CN(Cc2ccccc2)Cc2ccccc2)nc2c1c(=O)n(C)c(=O)n2C,0.41
O=C1C(=O)N2C(=C1C(=O)N1CCCCCC1)c1ccccc1CC21CCCC1,0.2
CC1=NN(c2ccccc2)C(=O)C1C(=O)c1ccccc1 (stereo unspecified),-1.2
CC(NC(=O)COc1ccccc1)C1COc2ccccc2O1 (stereo unspecified),-0.41
CCn1cc(C(=O)NC2CC(C)(C)Cc3c2cnn3-c2cccc(F)c2)cn1 (stereo unspecified),-1.4
O=S(=O)(Cc1ccccc1)N1CCCCC1,0.21
C/C(=N\OCC(=O)OCC(=O)N(Cc1ccccc1)C(C)(C)C)c1ccc2c(c1)OCO2,-0.76
COc1ccc(C(=O)NC(C)C2CC3CCC2C3)c(OC)c1 (stereo unspecified),0.54
Cc1c(C(=O)O)cccc1-c1ccc(/C=C2\SC(=O)NC2=O)o1,0.02
COc1ccc(N2C(=NC(=O)CCC3CCCC3)SC3CS(=O)(=O)CC32)cc1 (stereo unspecified),1.9
O=C(O)CC(Cc1ccc(Cl)cc1)C(=O)Nc1ccccc1 (stereo unspecified),-0.78
COc1cc(CN(C(=S)NCC(=O)N2CCCC2)C2CCCC2)cc(OC)c1OC,0.1
O=C(Cn1ncn2cccc2c1=O)N1CCCCC1,1.2
CN(C)S(=O)(=O)c1ccc(Cl)c(NC(=O)CN2CCC(Cc3ccccc3)CC2)c1,1.9
CCOC(=O)c1ccc(-n2c(=S)sc3c(=O)[nH]c(C)nc32)cc1,0.98
O=C(NCCCO)c1nnc(Cc2c(F)cccc2Cl)o1,0.62
Cc1cc2c(c(=O)n1C1CC1)C(c1cccc(Cl)c1)C(C#N)=C(N)O2 (stereo unspecified),0.34
O=C1c2cc(S(=O)(=O)N(CCO)CCO)ccc2-c2ccc(S(=O)(=O)N(CCO)CCO)cc21,0.88
CN(C)CCC(c1ccc(Cl)cc1)c1ccccn1 (stereo unspecified),-0.49&-1.3
Cc1ccc(/C=C2\SC(=S)N(CCCC(=O)Nc3cccnc3)C2=O)cc1,-2.6
CCOc1ccc(C(C)C)cc1S(=O)(=O)n1ccnc1C,-2.9
COc1ccccc1NC(=S)NCc1ccco1,0.06
COc1ccc(CNC(=O)CCC(=O)c2ccc(C)cc2)cc1OC,-0.78
CCC(C)c1ccc(NC(=S)N2CCN(c3ccccn3)CC2)cc1 (stereo unspecified),-1.1

# An excerpt of these results, with each value named.
COc1cc(CN(C(=S)NCC(=O)N2CCCC2)C2CCCC2)cc(OC)c1OC
  Kir21 inh: 0.1
O=C(O)CC(Cc1ccc(Cl)cc1)C(=O)Nc1ccccc1 (stereo unspecified)
  Kir21 inh: -0.78
CCC(C)c1ccc(NC(=S)N2CCN(c3ccccn3)CC2)cc1 (stereo unspecified)
  Kir21 inh: -1.1

# Pulled by structure from the entries so far:
SMILES,Kir21 inh
Cc1ccc(CNCC(=O)Nc2ccc(N3CCOCC3)cc2)cc1,0.54
Brc1cccc(OCCSc2ncccn2)c1,-1.3

# (more compounds)
SMILES,Kir21 inh
CCCOC(=O)Nc1ccccc1C(N)=O,-0.18
Cc1ccc(OCC(=O)NCc2ccco2)cc1C,-0.45
CCN(CC(=O)Nc1c(F)cccc1F)C(=O)c1cc(S(=O)(=O)NCc2ccccc2)ccc1C,0.09
Cn1c(C(=O)NCc2cccs2)cc2c(=O)n(C)c3ccccc3c21,1.6
C=CCN1C(=O)CS/C1=N\S(=O)(=O)c1ccc(Cl)cc1,-1.7
CCn1c(=O)c2c(nc(SCC(=O)N3CCC(C)CC3)n2C)n(C)c1=O,-0.89
CCN1CCN(c2nc(S(=O)(=O)c3ccc(C)cc3)c(Cl)s2)CC1,-1.7
O=C(CC1Nc2ccccc2NC1=O)NCc1cccnc1 (stereo unspecified),0.01
CC(C)(C)SCCNC(=O)/C=C/c1ccccc1,2.5
CN(CC(=O)Nc1sccc1C#N)C1CCCCC1,-1.5
CCn1cc(C(=O)O)c(=O)c2cc(F)c(N3CCN(C(=S)NC(=O)c4ccccc4Br)CC3)cc21,0.57
COc1cc(OC)c(OC)cc1CN1CCN(S(=O)(=O)c2ccc(NC(C)=O)cc2)CC1,1.9
CC1(C)Cc2ccccc2-c2nc(NCCO)n(-c3ccccc3)c(=O)c21,-0.09
COCCNC(=O)CC(=O)N/N=C/c1cccc(C(=O)OC)c1,0.43
O=C(Cn1cnc2ccccc2c1=O)Nc1cccc(S(=O)(=O)N2CCCCC2)c1,-0.59
CC1CCN(S(=O)(=O)c2cccc(C(=O)N(C)C3(C)CCS(=O)(=O)C3)c2)CC1 (stereo unspecified),0.06
O=C(CN1C(=O)c2ccccc2C1=O)Nc1sc2c(c1C(=O)NCc1ccco1)CCCC2,-0.63
COC(=O)c1cccc(NC(=O)c2ccc3c(c2)C(=O)N(Cc2cccnc2)C3=O)c1,0.07
CCN(CC)S(=O)(=O)c1cccc(-c2nnc(SCC(=O)c3ccc(Cl)s3)n2C)c1,-1.2
COc1ccc(NC(=O)CCC(=O)Nc2nnc(C3CCCCC3)s2)cc1,1.3
Nc1nc(CSCCO)nc(Nc2ccccc2)n1,0.53
CN(c1ccccc1C(=O)Nc1ccc2c(c1)OCCO2)S(C)(=O)=O,1.6
COc1ccc2[nH]c(=O)c(CN(CC3CCCO3)C(=S)Nc3ccccc3)cc2c1 (stereo unspecified),-1.2
CSc1nc(N2CCOCC2)c2c(c1C#N)CCCCC2,-1.7
CN(C)S(=O)(=O)c1ccc(C(=O)NCC(C)(C)CN=C2NS(=O)(=O)c3ccccc32)cc1,-1.8
CCOc1ccccc1C1C(C#N)=C(N)SC(N)=C1C#N,-0.48
COc1ccc(C)c(NC(=O)C2CC(=O)NC3=C2C(=O)CCC3)c1 (stereo unspecified),-0.12
COc1ccc(NC(=O)CCn2cccc2)cc1,-1.1
CCn1c(=O)c(C(=O)CC#N)c(N)n(Cc2ccccc2)c1=O,0.2
CC(C)NC(=O)c1ccc(CNC(=O)OCC(F)(F)F)cc1,-1.4
CC(=O)c1cc2c(cc1NC(=O)CN1CCCCC1C)OCO2 (stereo unspecified),-0.23
O=C(OCCN1C(=O)c2cccc3c(N4CCOCC4)ccc(c23)C1=O)c1ccc(Cl)cc1Cl,-7.6
CCN1CCN(S(=O)(=O)c2ccc(C)c([N+](=O)[O-])c2)CC1,-0.34
O=C(O)CC(C(=O)Nc1ccc(Cl)cc1)N1CCCCCC1 (stereo unspecified),-2.5
O=c1oc2ccccc2c(N2CCCC2)c1CN1CCCC1,0.75
C[C@H]([C@@H](N)C(=O)N[C@@H](C(=O)O)[C@@H]1O[C@H](n2ccc(=O)[nH]c2=O)[C@@H](O)[C@H]1O)[C@@H](O)c1ccc(O)cn1,1.4
O=C(O)CC1S/C(=N\N=C2\C(=O)Nc3ccccc32)N(c2ccc(O)cc2)C1=O (stereo unspecified),0.86
CCc1cc(=O)oc2cc(OCC=C(C)C)ccc12,0.13
O=C1C=C(NCc2ccc(Cl)cc2)CCC1,0.67
N#CC1=C(N)S[C@@H](C(=O)c2ccc(F)cc2)[C@@H]1c1cccs1,0.06
Cc1cc(C)n(C/C=C/Cn2nc(C)cc2C)n1,-0.4
CC(C)(C)NC[C@H](O)COc1nsnc1N1CCOCC1,2.5
